From PubChem
GALR2 ag: agonists of human galanin receptor 2 (GALR2). GALR2-expressing cells, agonist activation read-out. activation, %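 (tested at 5 µM)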. 140,000 compounds, 0.48% hits. AID 803;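 active means above mean plus 3 SD of all compounds, about 5% in these data, not always enough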;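 further: 0% = vehicle buffer wells and 100% = reference agonist at full effect; tested in CHO reporter cells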
Target sequence (O43603 whole entry, looked up): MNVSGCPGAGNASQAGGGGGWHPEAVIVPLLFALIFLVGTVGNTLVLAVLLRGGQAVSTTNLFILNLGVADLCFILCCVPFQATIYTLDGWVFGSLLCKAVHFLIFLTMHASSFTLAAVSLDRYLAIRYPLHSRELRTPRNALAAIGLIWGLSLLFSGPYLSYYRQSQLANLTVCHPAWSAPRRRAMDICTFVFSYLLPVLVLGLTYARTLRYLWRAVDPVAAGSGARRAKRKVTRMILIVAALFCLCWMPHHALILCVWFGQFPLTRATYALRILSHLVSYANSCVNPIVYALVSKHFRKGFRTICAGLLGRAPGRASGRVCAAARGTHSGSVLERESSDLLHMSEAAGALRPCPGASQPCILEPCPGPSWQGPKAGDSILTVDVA
RGS16-Gao: regulators of human RGS16-Galphao interaction; 220,000 compounds, 0.38% hits; O15492+P09471; bead-based flow cytometry RGS16-Galphao binding, fluorescence; actives lie on both sides; binding response (% of control), % at 10 µM;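 active means below 25% or above 175%, edge rows of some plates excepted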;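 further: Galphao activated by GDP with aluminum fluoride before binding; 100% = wells without compound and 0% = beads without RGS; some results beyond the cut were filed as inactive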
Target sequence (O15492 whole entry, looked up): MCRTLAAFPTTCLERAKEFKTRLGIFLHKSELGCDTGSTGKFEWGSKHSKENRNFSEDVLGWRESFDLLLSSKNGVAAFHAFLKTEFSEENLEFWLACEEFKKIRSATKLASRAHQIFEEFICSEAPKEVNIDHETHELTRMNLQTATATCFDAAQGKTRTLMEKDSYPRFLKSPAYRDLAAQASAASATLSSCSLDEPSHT
Target sequence (P09471 whole entry, looked up): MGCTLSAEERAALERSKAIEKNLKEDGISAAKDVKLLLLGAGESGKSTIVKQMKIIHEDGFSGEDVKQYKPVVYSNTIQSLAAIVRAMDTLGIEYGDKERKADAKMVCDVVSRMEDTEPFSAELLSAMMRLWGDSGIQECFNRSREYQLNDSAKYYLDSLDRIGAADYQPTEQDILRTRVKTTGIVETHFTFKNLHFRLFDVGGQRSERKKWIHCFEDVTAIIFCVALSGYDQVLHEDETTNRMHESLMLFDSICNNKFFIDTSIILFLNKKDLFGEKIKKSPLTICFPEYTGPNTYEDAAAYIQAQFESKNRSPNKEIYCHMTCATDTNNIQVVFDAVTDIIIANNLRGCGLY
HSV augment: HSV replication enhancement. HSV replication augmentation in cells, fold increase. maximum fold increase. 220,000 compounds, 0.005% hits;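 active means peak rise of 1.5-fold or more in the series; inconclusive means self-fluorescent or not available for retest; tested in PC3 cells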;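 further: first round at 10 µM; read as green reporter fluorescence; hits show the peak of a series up to 25 µM; 1 = signal of infected wells without compound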
PKD1 inh: inhibitors of human PKD1 kinase. PKD1 kinase fluorescence polarization assay. AID 797. 200,000 compounds, 0.056% hits. Q15139. inhibition, %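 (about 10 µM by stock and volumes)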;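 active means inhibition of 50% or more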;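 further: controls were vehicle for no effect and a reference inhibitor for full effect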
Insulin prom inh: TRM-6 insulin promoter activity inhibition. TRM-6 cells (human fetal islet line), insulin promoter-eGFP reporter, imaging; reporter expression induced with tamoxifen. inhibition, % at 2 µM. 130,000 compounds, 0.9% hits. AID 1273;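 active means inhibition above the mean plus 3 SD, with well images judged a real hit on visual review, cut at about 60% in these data, passing the limit was not always enough; inconclusive means inhibition over the cutoff but images rejected on review; inactive means inhibition not above the cutoff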
Insulin prom inh cell count: also measured in Insulin prom inh; calls as there; normalized cell count, %; measured here: cell count, toxicity; reference of the scale not given here;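 cells exposed to compound for 48 h; stained nuclei by imaging scaled within each plate; lower means fewer cells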
HSV augment primary fold: second read-out of HSV augment, no call of its own (marks repeat the call); fold increase; compound at 10 µM; measured here: primary screen fold increase 10 uM; tested in PC3 cells;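 GFP signal in the first replicate; 1 = infected wells without compound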
An asterisk follows results filed as active; i = inactive; u = inconclusive; x = no result given.

Compound,GALR2 ag,RGS16-Gao,Insulin prom inh,HSV augment primary fold,PKD1 inh,HSV augment,Insulin prom inh cell count
COc1cc(/C=C(\C#N)c2nc3ccccc3[nH]2)cc(OC)c1O,x,88,x,x,-3,u,x
COC(=O)c1ccccc1NC(=O)CCNC(=O)Cn1cnc2ccccc2c1=O,-2.4,110,x,0.99,-16,i,x
CC(=O)c1sc2nsc(SCCN3CCCCC3)c2c1N,x,100,x,0.93,x,i,x
COc1ccc2cc(C#N)c(Cl)nc2c1,x,97,x,1,-1,i,x
CC(NC(=O)c1cn(C(C)c2ccccc2F)nn1)c1ccncc1 (configuration not stated),x,95,45,1,-1,i,134
C/C(=N/OC(=O)C1CC12CCC2)c1ccc(Br)cc1 (configuration not stated),x,102,-7,1,2,i,85
COc1ccc(S(=O)(=O)Nc2ccc(O)c(Sc3ncn[nH]3)c2)cc1,-0.6,114,56,0.79,-4,i,85
COC(=O)c1cc2c(C)nn(-c3ccccc3)c2s1,-2.7,104,37,1.1,3,i,38
CCc1ccc(CN/C=C/C(=O)c2ccc(Br)cc2)cc1,-2.5,98,x,0.88,3,i,x
CCOC(=O)COc1ccc2nsnc2c1Cl,-1.3,104,x,1,-4,i,x
CCOc1cc(S(=O)(=O)Nc2cc(C)cc(C)c2)ccc1Cl,-1.3,102,14,0.93,-2,i,103
Cc1ccc(CN(c2ccc(C(=O)Nc3cccnc3)cc2)S(C)(=O)=O)cc1,-2.0,4.8*,x,1.1,-3,i,x
NNC(=O)c1ccc(COc2cccc3cccnc23)cc1,x,104,0,0.93,-4,i,33
Cc1ccc2nc(SCC(=O)Nc3ccc(F)c([N+](=O)[O-])c3)[nH]c2c1,0.5,106,x,0.71,11,i,x
Cc1ccc(CSCCNC(=O)c2ccc(N(C)S(=O)(=O)c3ccccc3)cc2)cc1,-3.6,101,-38,0.94,-7,i,74
O=C(O)c1cccc(Cn2cccn2)c1,-1.0,104,11,x,-2,x,118
COc1ccc(/C(O)=C/C(=O)C(=O)Nc2c(C)n(C)n(-c3ccccc3)c2=O)cc1,0.1,100,6,0.92,5,i,137
Nc1nc2ccc(O)cc2s1,0.0,102,-12,0.59,2,i,66
CCOc1ccc(C2c3cc(OC)c(OC)cc3CC(=O)N2c2ccccc2)cc1 (configuration not stated),-2.0,101,-29,0.92,-4,i,108
Cc1cc(C)nc(SCC(=O)c2c(N)n(C)c(=O)n(C)c2=O)n1,-2.6,106,23,x,3,x,106

An excerpt from above in order of their number in RGS16-Gao, highest first.
| molecule | GALR2 ag | RGS16-Gao | HSV augment primary fold | PKD1 inh | HSV augment |
| --- | --- | --- | --- | --- | --- |
| COc1ccc(S(=O)(=O)Nc2ccc(O)c(Sc3ncn[nH]3)c2)cc1 | -0.6 | 114 | 0.79 | -4 | i |
| COC(=O)c1ccccc1NC(=O)CCNC(=O)Cn1cnc2ccccc2c1=O | -2.4 | 110 | 0.99 | -16 | i |
| COC(=O)c1cc2c(C)nn(-c3ccccc3)c2s1 | -2.7 | 104 | 1.1 | 3 | i |

Additional entries:
Compound,GALR2 ag,RGS16-Gao,Insulin prom inh,HSV augment primary fold,PKD1 inh,HSV augment,Insulin prom inh cell count
CC12CCC(C(=O)N3CCOCC3)([C@H](Br)C1=O)C2(C)C (some centres not stated),x,101,x,1,x,i,x
Cc1ccc(NC(=S)NNC(=O)c2ccc(N3CCOCC3)c([N+](=O)[O-])c2)cc1C,0.4,101,26,0.88,3,i,144
COC(=O)c1ccc(-c2ccc(/C=N/NC(=O)Cc3nnc(N)s3)o2)cc1,x,97,x,0.68,x,i,x
c1ccc(CNc2ncnc3c2cnn3Cc2ccccc2)cc1,-1.6,105,37,0.77,-5,i,65
CC1=Nc2ccccc2/C1=C\c1nc(-c2ccc(C(F)(F)F)cc2)oc1O,-1.5,60,-28,0.81,-2,i,57
CN1CCSc2ccc(C(=O)Nc3cc(F)ccc3F)cc21,x,119,x,0.97,x,i,x
Oc1ccc(/C=N/N2CCN(C3c4ccccc4-c4ccccc43)CC2)c(O)c1,x,107,-25,1,4,i,30
O=C(CSc1cccc[n+]1[O-])Nc1ccc(C(F)(F)F)cc1[N+](=O)[O-],x,99,x,0.91,7,i,x
COc1cccc(CNC(=O)CCC2CCCN(C(=O)c3cccc4c(C)c(C)[nH]c34)C2)c1 (configuration not stated),x,98,x,1,-1,i,x
Cc1ccc(C)c2nc3sc(C(=O)O)cc3cc12,x,59,x,0.99,7,i,x
COc1ccccc1CNCc1ccc(OC)c(OC)c1OC,-1.3,136,-195,1,-1,i,57
O=CN1CCN(C(=O)c2ccc([N+](=O)[O-])cc2)CC1,-2.3,109,-31,0.86,-3,i,190
CCCCS(=O)(=O)Nc1ccc2cn[nH]c2c1,x,103,x,1,-3,i,x
O=C(O)C1C2C=CC(C2)C1C(=O)Nc1cccc(C(=O)N2CCCCC2)c1 (configuration not stated),-0.4,101,28,0.9,-4,i,122
CCSc1nc2c(c(=O)[nH]1)C(c1ccc(C)cc1)C1=C(CCCC1=O)N2 (configuration not stated),x,106,35,0.94,-3,i,122
O=C(NNC(=O)c1cccs1)c1ccc(Cl)c([N+](=O)[O-])c1,-0.1,91,0,0.88,3,i,75
COc1cc(CCCN2C(=S)NC[C@@H]2CCCCN)cc(OC)c1OC,x,100,x,0.99,-1,i,x
CCOC(=O)c1cccnc1SCC(=O)N(CC)c1cccc(C)c1,-1.5,104,-72,1,-7,i,91
CC(C)(C)NC(=O)CSc1nncn1NCc1ccccc1,-1.0,101,0,0.98,-2,i,83
CCNC(=S)NNC(=O)CC(C)C,x,109,x,0.9,-8,i,x

Next section; the last 4 above are carried over.
Compound,GALR2 ag,RGS16-Gao,Insulin prom inh,HSV augment primary fold,PKD1 inh,HSV augment,Insulin prom inh cell count
COc1cc(CCCN2C(=S)NC[C@@H]2CCCCN)cc(OC)c1OC,x,100,x,0.99,-1,i,x
CCOC(=O)c1cccnc1SCC(=O)N(CC)c1cccc(C)c1,-1.5,104,-72,1,-7,i,91
CC(C)(C)NC(=O)CSc1nncn1NCc1ccccc1,-1.0,101,0,0.98,-2,i,83
CCNC(=S)NNC(=O)CC(C)C,x,109,x,0.9,-8,i,x
CCOC(=O)c1ccc(N/C=C/C(=O)C(C)(C)C)cc1,x,105,x,1,-16,i,x
CN(C(=O)COC(=O)c1ccc(Cl)cc1N)C1CCCCC1,x,100,x,1.1,4,i,x
CC(C)NC(=O)C1CCN(C2CCN(C(=O)Cc3ccc4c(c3)OCO4)CC2)CC1,x,100,x,0.87,-7,i,x
CN(C)c1ccnc(Oc2ccc(C(C)(C)C)cc2)c1C#N,-3.0,67,22,0.92,18,i,105
Nc1cc(Cl)ccc1C(=O)OCC(=O)NC1CCS(=O)(=O)C1 (configuration not stated),-1.1,89,-5,1,-2,i,50
CC(C)CC1NC(=O)N(Cc2cc(=O)n3ccsc3n2)C1=O (configuration not stated),x,101,x,0.96,-13,i,x
O=C(CN(C1CCCCC1)S(=O)(=O)c1ccc(Br)cc1)NCc1cccnc1,x,98,x,0.91,-6,i,x
O=C(O)CCCCn1c(SCc2cc(=O)n3cc(Cl)ccc3n2)nc2ccsc2c1=O,-2.3,63,29,0.97,-6,i,130
CCN1CCn2c3c(c4cc(Cl)ccc42)CCCC31 (configuration not stated),-1.3,104,x,0.98,-11,i,x
C/C(=N\Nc1nc(C)cc(C)n1)c1ccc(C)o1,x,101,x,0.97,x,i,x
CC1(C)CC(=O)C(N=Nc2ccc(-c3ccccc3)cc2)=C(O)C1,x,105,-282,0.99,-5,i,37
C1CN(c2nc3nonc3nc2N2C[C@H]3CC[C@H]2C3)CCS1,x,100,x,0.93,-3,i,x
CC(C(=O)Nc1ncccn1)(c1ccccc1)c1ccccc1,x,108,x,0.89,-8,i,x
CCOC(=O)N1CCN(c2nc(-c3ccc(Cl)cc3)cs2)CC1,-1.8,101,x,0.96,-11,i,x
CCOc1ccc(NCC2CCOC(C)(C)C2)cc1 (configuration not stated),-1.9,91,20,0.91,-4,i,130
COc1cccc(C(C)NC(=S)NCc2ccc(Cl)cc2)c1 (configuration not stated),x,100,21,0.95,6,i,129
CCC(C)CCCCNC1=NCCS1 (configuration not stated),x,101,x,1,-5,i,x
O=C(CN1C(=O)c2ccccc2C1=O)NCC1CCCO1 (configuration not stated),-0.6,107,x,0.91,-2,i,x
O=C(Nc1cc(=O)[nH]c2nc(-c3ccc(Cl)cc3)nn12)c1ccccc1,x,102,x,0.99,x,i,x
CCOC(=O)c1ccc[n+](CC(=O)Nc2ccccc2OC(F)F)c1,x,102,x,0.98,4,i,x

Three entries drawn at random from those above:
Compound,GALR2 ag,RGS16-Gao,Insulin prom inh,HSV augment primary fold,PKD1 inh,HSV augment,Insulin prom inh cell count
CN(C)c1ccnc(Oc2ccc(C(C)(C)C)cc2)c1C#N,-3.0,67,22,0.92,18,i,105
C/C(=N\Nc1nc(C)cc(C)n1)c1ccc(C)o1,x,101,x,0.97,x,i,x
CC(C)NC(=O)C1CCN(C2CCN(C(=O)Cc3ccc4c(c3)OCO4)CC2)CC1,x,100,x,0.87,-7,i,x

The listing continues:
Compound,GALR2 ag,RGS16-Gao,Insulin prom inh,HSV augment primary fold,PKD1 inh,HSV augment,Insulin prom inh cell count
Cc1cc(=O)[nH]c2c3ccccc3nn12,x,98,18,0.89,-6,i,142
Cc1cc(NC(=O)CSc2nc(-c3ccc(F)cc3)cs2)no1,-3.3,89,x,0.87,28,i,x
COCCNC(=O)/C(C#N)=C/C=C/c1ccccc1[N+](=O)[O-],x,97,x,0.65,-9,i,x
Cc1ccc(/C=C/C(=O)Nc2nn[nH]n2)o1,-0.9,108,-36,1.1,-14,i,33
O=C1CC(N2CCC(c3nc4ccccc4[nH]3)CC2)C(=O)N1c1ccccc1F (configuration not stated),x,97,-45,1,-3,i,102
CCn1c2ccccc2c2nnc(SCCCn3c(=O)[nH]c4ccccc43)nc21,-0.5,90,18,0.77,12,i,44
O=S1(=O)CC/C(=N\Nc2ccc(F)cc2)c2ccsc21,x,104,-27,0.93,-4,i,252
COc1cc2c(C(=O)N3CCN(Cc4ccc5c(c4)OCO5)CC3)cn(C)c(=O)c2cc1OC,-1.4,102,x,x,1,x,x
CCOC(=O)c1c(C)n(CCNC(C)=O)c2ccc(O)cc12,0.3,93,-3,0.85,-2,i,148
O=C1NC(=Nc2ccccc2)S/C1=C\C=C\c1ccco1,-1.9,103,9,1.2,-3,i,68
COc1ccc(CNC(=O)c2cnc3scc(C)n3c2=O)cc1,-1.5,96,x,0.97,-4,i,x
O=C(CCc1n[nH]c(=O)[nH]c1=O)N1CCCCC1,-0.2,72,x,1,-2,i,x
CCN1C(=O)/C(=c2\sc3nc(=O)c(Cc4ccccc4)nn3c2=O)c2ccccc21,x,96,x,0.91,x,i,x
CCCC(=O)Nc1sc(C)c(C)c1C(=O)Nc1cccc(C)c1,-2.1,106,35,0.84,-20,i,60
Cc1ccccc1NC(=O)NCCc1nc2ccccc2[nH]1,0.1,126,-21,0.87,-3,i,185
COC(=O)c1sccc1NC(=O)c1cc(-c2ccc(C)cc2C)nc2ccccc12,-1.5,115,50,0.98,9,i,96
Cc1ccc(C2CC(c3cccs3)=NN2C(=O)CSc2nc3ccccc3o2)cc1 (configuration not stated),-1.0,101,30,0.96,16,i,150
COc1ccc(NC2CC(=O)N(c3ccccc3)C2=O)cc1 (configuration not stated),-1.9,88,-19,1.1,1,i,123
COc1ccc(CN(Cc2ccc(OC)cc2)C(=O)c2cccs2)cc1,x,99,x,1.1,x,i,x
CCOc1cc(NC(=S)NC)c(OCC)cc1NC(=O)c1ccc(OC)cc1,x,102,x,1,-1,i,x

Next section.
Compound,GALR2 ag,RGS16-Gao,Insulin prom inh,HSV augment primary fold,PKD1 inh,HSV augment,Insulin prom inh cell count
Cc1cc(=O)oc(C)c1C(=O)NCCCN1CCN(c2ccccc2F)CC1,-0.7,106,-73,1,-12,i,66
CN1CCC(N(C)C(=O)/C(C#N)=C/c2ccc(OC(F)F)cc2)CC1,x,101,x,0.88,x,i,x
COc1cc2c3nnc(-c4ccccc4)c-3cn(Cc3ccccc3F)c2cc1OC,x,85,i,x,-11,x,77
Oc1ccccc1NCC(O)Cn1ccc2ccccc21 (configuration not stated),-3.5,100,-19,1.2,4,i,98
CCCN1Cc2cccc(C(=O)Nc3ccc(CC)cc3)c2C1=O,-1.8,99,x,0.82,-1,i,x
O=C(CNC(=O)c1ccco1)OCC(=O)c1ccc(Cl)cc1,x,107,x,1.1,4,i,x
